Compound activity (PubChem BioAssay)
TRPML1 blocker = qHTS for Inhibitors of the Human Mucolipin Transient Receptor Potential 1 (TRPML1) | 0.02% of 390,000 active | AID 624415, 2012 | activity change, negative = inhibition, % (test concentration not listed) | TRPML1-inducible cells, Ca2+ dye fluorescence, FDSS; active compounds read low; inhibition of EC80 agonist-evoked calcium signal | Mucolipin-1 (Homo sapiens), Q9GZU1; in the data active means activity change below about -50%; inconclusive means about -30% to -50%; inactive means above about -30%;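 further: stimulus is agonist 54-4 at its EC80 concentration; on the % scale 0 is the no-effect control and ±100 the full control effect; compound concentration not given in the record; the text of the record puts the active cut at -80%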
Target sequence (Q9GZU1 whole entry, looked up): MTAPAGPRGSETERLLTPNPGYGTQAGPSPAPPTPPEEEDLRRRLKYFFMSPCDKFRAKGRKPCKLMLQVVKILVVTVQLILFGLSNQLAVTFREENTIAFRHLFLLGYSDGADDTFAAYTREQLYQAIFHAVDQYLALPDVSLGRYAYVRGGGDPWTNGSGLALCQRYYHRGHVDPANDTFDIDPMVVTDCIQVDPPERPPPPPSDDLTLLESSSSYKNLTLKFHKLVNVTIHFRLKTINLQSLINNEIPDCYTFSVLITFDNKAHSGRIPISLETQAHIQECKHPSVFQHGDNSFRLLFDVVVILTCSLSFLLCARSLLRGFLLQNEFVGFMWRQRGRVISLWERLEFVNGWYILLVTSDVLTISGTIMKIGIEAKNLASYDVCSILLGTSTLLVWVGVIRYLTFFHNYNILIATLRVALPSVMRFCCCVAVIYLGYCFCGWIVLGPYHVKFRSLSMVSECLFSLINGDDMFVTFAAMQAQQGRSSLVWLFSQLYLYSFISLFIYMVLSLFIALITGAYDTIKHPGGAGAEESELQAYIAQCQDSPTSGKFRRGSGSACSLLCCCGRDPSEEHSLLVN
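Tet-induced TRPML1-DL cells loaded with Ca8 no-wash calcium dye were read kinetically on FDSS. Compound addition was followed by EC80 agonist 54-4 (4 uM final); inhibition was read over 110 s.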
gsp antag = qHTS for Antagonists of gsp, the Etiologic Mutation Responsible for Fibrous Dysplasia/McCune-Albright Syndrome: qHTS | gsp-mutant cells, cAMP HTRF, 30 min; control for the full effect not named in the record | Potency, µM (titrated, usually from 76.9 µM), for inactives: at the top dose activity change, negative = inhibition, most hits filed as inhibitors | 0.4% of 340,000 active | AID 624288, 2012; active = falling curve of any shape with a large fitted effect; inconclusive = falling curve, mostly with a smaller effect; inactive = flat or rising curve; cell line not stated here;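 further: intracellular cAMP measured with PDE inhibitor Ro 20-1724 present during compound exposure; potency means the concentration at half of the fitted maximal effect; on the % scale 0 is the no-effect control and ±100 the full control effect; nearly all actives have a fitted effect of over 65% in size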
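HTRF cAMP read-out (cAMP-d2 plus anti-cAMP antibody-K in lysis buffer, 30 min RT). Before lysis, cells are exposed to compounds with […] for 30 min at 37C in DPBS containing Ca/Mg, BSA and Tween 20.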
Menin MLL FP FL = qHTS Assay for Inhibitors Targeting the Menin-MLL Interaction in MLL Related Leukemias: Competition With Fluorescein Labeled MLL-derived Peptide; 290,000 tested, under 10 active; Fluorescence polarization, fluorescein-MLL peptide displacement from menin; FP activity change, % at 61.4 µM; inconclusive = falling polarisation curve, or a change in total fluorescence; inactive = total fluorescence flat and polarisation flat or rising; no compound was filed as active; the % refers to the polarisation; negative = inhibition;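 further: % of control where 0% means no effect; inhibitors lower the polarisation; unlabelled MLL peptide was the positive control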
ClpP mod = qHTS Assay for Activators of ClpP; ATP-dependent Clp protease proteolytic subunit (Bacillus subtilis (strain 168)), P80244; purified B. subtilis ClpP, FRET peptide cleavage, 20 min; Potency, µM (doses to about 57.5 µM), for inactives: top-dose activity change, negative = active; 1.9% of 340,000 active; active = well fitted falling curve with a large enough effect; inconclusive = small, poorly fitted or top-dose-only effect; inactive = no such curve, though single readings can be large or run the other way; further: potency means the concentration at half of the fitted maximal effect; the source files actives as falling curves though it sought activators and does not explain the sign; nearly all actives have a fitted effect of over 65% in size; many hits overshoot -100%
Target sequence (P80244 whole entry, looked up): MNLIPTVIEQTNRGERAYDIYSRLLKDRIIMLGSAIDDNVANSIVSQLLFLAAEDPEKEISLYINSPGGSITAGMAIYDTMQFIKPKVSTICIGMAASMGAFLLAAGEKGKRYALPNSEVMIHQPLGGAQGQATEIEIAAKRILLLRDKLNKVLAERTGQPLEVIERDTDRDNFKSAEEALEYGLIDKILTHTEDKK
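ClpP 10 microg/mL final, pH 8 Tris/KCl buffer with BSA, glycerol, Tween-20; compound pinned in; FRET-FV substrate; RT 20 min; Ex320/Em430; ΔFRET vs ADEP 5.8 microM, DMSO, no enzyme.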
gsp agonist = qHTS for Agonist of gsp, the Etiologic Mutation Responsible for Fibrous Dysplasia/McCune-Albright Syndrome: qHTS; gsp mutant cells, cAMP HTRF, 30 min; control for the full effect not named in the record; Potency, µM (top dose mostly 76.9 µM), for inactives: top-dose activation (cAMP increase), hits mostly activators; AID 624287, 2012; 0.13% of 340,000 active; active = well fitted activation curve with a large enough effect; inconclusive = small, poorly fitted or top-dose-only effect, or another doubt; inactive = no such curve, though single readings can be large or run the other way; cell line not stated here;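 further: phosphodiesterase inhibitor Ro 20-1724 added with compounds to block cAMP breakdown; potency means the concentration at half of the fitted maximal effect; nearly all actives have a fitted effect of over 60% in size; about a fifth of the inactives were tested at one dose only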
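Cells in DMEM/10% FBS with G418 were pretreated with compounds in DMSO plus […] (300 uM stock) for 30 min at 37C. cAMP was measured by HTRF (cAMP-d2 plus anti-cAMP antibody-K) after 30 min at room temperature.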
TRPML1 agonist = qHTS for Agonists of the Human Mucolipin Transient Receptor Potential 1 (TRPML1). activation, % (test concentration not listed). Mucolipin-1 (Homo sapiens), Q9GZU1. TRPML1-expressing cells, Ca2+ dye fluorescence, FDSS; host cell line not named in the record; reference of the full effect not given here. AID 624414, 2012. 0.12% of 410,000 active; in the data active = activation above about 50%; inconclusive = about 30% to 50%; inactive = below about 30%; further: 0% is about no effect; the text of the record puts the active cut at 80%
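Cells: TRPML1-DL, 1X Tet inducer, ~16 h at 37 degrees C/5% CO2. Dye: ABD Ca8 no-wash + quencher, 45-90 min RT. Read: 10 s baseline, compound add, 110 s agonist phase; 54-4 EC80 (4uM final), 110 s antagonist phase.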
Numbers without * were called inactive; ? = inconclusive; nt = not tested or not shown; & = joins results of further samples; [ ] = remark or other dose.

mol | TRPML1 blocker | gsp antag | Menin MLL FP FL | ClpP mod | gsp agonist | TRPML1 agonist
CCc1ccc(N(C(=O)c2csnn2)C(C(=O)NC(C)(C)CC)c2cccnc2)cc1 (stereo unspecified) | 0.6 | 4.6% | -8.0 | nt | 18.4% | 0.2
COc1ccc(-n2ccnc(SCC(=O)NC3CCCCC3)c2=O)cc1 | 2.1 | -17.4% | nt | -12.4% | 7.3% | -0.8
CC(=O)c1cc(-c2ccccc2)n(CC(=O)Nc2ccc(C)c(C)c2)c1C | 7.4&11.7 | 8.9% | 2.8 | 0.4%&-3.9% | -0.3% | 2.7&0.8
O=C(Nc1nnc(N2CCCCCC2)s1)Nc1cc(F)ccc1F | 3.2 | nt | nt | -2.0% | nt | -0.6
CCOC(=O)C1CCCCN1Cc1ccc(F)cc1 (stereo unspecified) | -10.2 | -8.1% | -1.7 | -0.4% | -23.0% | 5.0
COc1ccccc1CCC(=O)Nc1ncc(C)s1 | nt | 8.1% | -5.6 | -0.9% | 1.2% | nt
C[C@H](CO)N1C[C@H](C)[C@@H](CN(C)S(C)(=O)=O)Oc2ccc(NS(=O)(=O)c3cn(C)cn3)cc2C1=O | -1.0 | 8.6% | nt | -2.7% | nt | -0.2
O=S(=O)(Nc1ccc(O)c2ccccc12)c1ccc(OC(F)(F)F)cc1 | 9.8 | -1.1% | nt | nt | 2.6%[15.4 µM] | 2.1
O=S(=O)(Nc1cccnc1)c1ccc(C2CCCCC2)cc1 | -0.2 | -8.3% | 3.7 | 0.6% | -18.7% | -0.4
N#Cc1cc2c(=O)n3ccccc3nc2n(-c2nnc(SCc3ccc(F)cc3)s2)c1=O | -27.8 | nt | nt | 4.0% | nt | 1.3
CC(C)(CO)N=Cc1c(O)[nH]c2ccccc12 | -0.4 | -2.5% | -1.0 | 2.0% | -24.0% | 0.0
COc1ccc(C(=O)NC(=S)NNC(=O)c2ccc(C)cc2)cc1 | 16.0 | 3.4% | nt | -0.5% | -0.2% | 11.0
C/C=C(/CCC1NCCc2c1[nH]c1ccccc21)[Si](C)(C)C (stereo unspecified) | -10.8 | 6.9% | nt | -4.5% | ? | 0.0
O=C(Cc1ccccc1)Nc1ccccc1N1CCOCC1 | -12.0 | -0.3% | -2.2 | 1.2% | 2.0% | 1.4
CN(C)CC/C=C1/c2ccc(F)cc2Sc2ccc(Cl)cc21 | 0.9 | 22.7% | nt | nt | 6.9%[15.4 µM] | 0.7
Cc1ccc(S(=O)(=O)c2nnn3c2nc(NC(C)C)c2cc(Cl)ccc23)cc1C | 18.1 | nt | nt | -4.5% | nt | -1.1
C=CCNC(=S)Nc1ccc(C(N)=O)cc1 | -9.7 | 5.8% | -0.4 | nt | -0.3%[15.4 µM] | 0.0
CCc1nc2ccc(C(=O)Nc3ccc4c(c3)OCC(=O)N4)cn2c1N(C)Cc1nccn1C | -1.7 | nt | nt | -1.7% | nt | -0.3
Cc1ccc(C(=O)NCC(=O)NCCCc2ccccc2)s1 | -4.1 | 7.7% | -4.8 | nt | -16.6% | -0.7
Cc1nn(-c2ccc3nncn3n2)c(C)c1CCC(=O)Nc1ccc(OC(F)(F)F)cc1 | -20.3 | nt | nt | 0.3% | nt | 3.7
Cc1cc(C)nc(SC(C)C(=O)Nc2ccc(S(N)(=O)=O)cc2)n1 (stereo unspecified) | 19.2 | 13.2% | -2.2 | 0.7% | -0.3% | 0.2
O=C(c1c[nH]c2ccccc12)N1CCN(c2ccccc2)CC1 | 5.0 | -0.3% | -3.5 | 0.0% | -22.4% | 0.0
CCCCOCCCNC(=O)CC(C)c1ccccc1 (stereo unspecified) | -22.4 | 4.0% | 10.7 | -1.2% | 6.1% | -0.1
CCCOc1ccc(S(=O)(=O)n2cc(Br)c(=O)[nH]c2=O)cc1 | -7.3 | -12.3% | -1.2 | 0.1% | -1.9% | -0.5
CCC1=C/C(=C/N(C)c2ccccc2)C(=O)S1 | 15.8 | -13.4% | ? | -4.1% | -12.5% | -0.1
Cc1cccc(N2CCN(C(=O)C3CCN(C(=O)c4cc5sccc5n4C)CC3)CC2)c1C | -24.6 | nt | nt | -4.1% | nt | 0.5
COc1ccc(S(=O)(=O)N2CCc3ccccc32)cc1NC(C)=O | 9.0 | 0.8% | -0.3 | nt | 4.4%[15.4 µM] | -0.1
Cc1ccnc(NC(c2ccccc2F)c2ccc3cccnc3c2O)c1 (stereo unspecified) | 6.6 | nt | nt | -3.8% | nt | 1.0
CC1=CC(C2CC(=O)N(c3ccccc3C)C2=O)CC2C(=O)N(c3ccccc3C)C(=O)C12 (stereo unspecified) | -10.3 | 3.9% | -0.2 | 2.1% | -32.6% | 0.1
CC(C)[C@H](NC(=O)c1ccccc1F)C(=O)Nc1cccc(S(=O)(=O)N2CCOCC2)c1 | 2.7 | nt | nt | 1.5% | ? | -0.7
CC(C)NC(=O)N(C)C[C@@H]1Oc2ccc(NC(=O)CCN3CCOCC3)cc2CC(=O)N([C@@H](C)CO)C[C@@H]1C | 86.0 | 11.9% | nt | 1.4% | 35.9% | -0.3
CCOc1ccc(NC(=S)c2ccncc2)cc1 | -6.5 | -30.0% | -0.6 | 7.7% | -39.8%[inhibitor] | 0.0
CC(C)(C)c1ccc(C(=O)Nc2cccnc2)cc1 | -7.6 | 8.7% | -6.1 | -2.4% | 2.4% | 0.2
CN(C)/C=C(/C(=O)c1ccc(Cl)cc1)S(C)(=O)=O | 7.0 | 0.4% | -1.2 | nt | 6.0%[15.4 µM] | -0.8
COc1cccc(C2NC(=S)NC3=C2CCc2ccccc23)c1 (stereo unspecified) | 10.1 | -8.6% | 22.7 | 11.9% | 10.2% | 1.0
COc1ccc(C2Nc3ccccc3-c3nnc(SC)nc3O2)cc1C (stereo unspecified) | 0.4 | nt | nt | -1.6% | nt | -0.1
CC1(C)CC(=O)C=C(Nc2ccc([N+](=O)[O-])cc2)C1 | 4.4 | -3.3% | 0.9 | nt | -10.4% | 0.3
COc1ccccc1NC(=O)N1CCCC1C(=O)NCCc1ccccc1 (stereo unspecified) | nt | 3.3% | 0.9 | 0.1% | -81.5% | nt
Cc1nc(C)c(NC(=O)N2CCc3ccccc32)cc1NC(=O)N1CCc2ccccc21 | 27.7 | -11.2% | 4.2 | 3.9% | 3.8% | -0.3
CCC(C)(C)c1nnc(NC(=O)CCC2CCCCC2)s1 | -7.4 | 11.6% | nt | -2.2% | 13.6% | 2.9
Cc1cccc(NC(=O)CN2CCC(NC(=O)C3CCCCC3)CC2)c1C | -1.3 | 8.3% | -0.8 | nt | -0.3%[15.4 µM] | -0.3
CCCCN(Cc1cc2cc(C)ccc2[nH]c1=O)C(=O)c1ccccn1 | -7.4 | -9.0% | 1.7 | -15.3% | 14.7% | -0.4
COCC(=O)Nc1nc(-c2ccc(C)cc2)c(C)s1 | -1.6 | -20.4% | 5.2 | 2.4% | -24.1% | -1.2
CN(CC(=O)Nc1ccccc1Cl)CC(=O)Nc1c(F)cccc1F | 4.3 | -5.3% | 0.4 | 1.0% | -26.3%[15.4 µM] | -1.4
OC1CCN(Cc2ccc3ccccc3c2)CC1 | -10.4 | 12.5% | 0.7 | 0.8% | 2.8%[15.4 µM] | 0.4
Cc1ccc(N2CCN(C(=O)c3ccccc3NC(=O)C3CCCCC3C(=O)O)CC2)cc1 (stereo unspecified) | 9.4 | -6.1% | 0.2 | -1.1% | -22.3% | 0.5
O=C(c1ccc(S(=O)(=O)NCC2CCCO2)cc1)N1CCN(c2ccccc2)CC1 (stereo unspecified) | -9.1 | 0.9% | -2.1 | nt | -34.0%[inhibitor] | 0.2
CC(=O)Nc1ccc(S(=O)(=O)Nc2ccc3ccccc3n2)cc1 | 3.1 | 3.7% | nt | -16.7% | -1.5% | 1.9
O=C(CCSc1nnc(-c2ccco2)o1)N1CCOCC1 | 4.0 | 8.9% | -2.0 | -2.4% | -16.8%[15.4 µM] | 0.0
O=C(NC(=S)Nc1ccc(N2CCCCC2)c(Cl)c1)c1cccs1 | 1.4 | 5.1% | nt | 0.7% | 24.1% | -0.5
O=C(Nc1cc(S(=O)(=O)Nc2ccccc2F)ccc1Cl)c1ccc(F)cc1F | -6.5 | -6.8% | nt | nt | -27.5% | 2.4
O=C(Nc1nc2c(s1)CCCC2)c1cc(-c2ccncc2)nc2ccccc12 | -15.5 | -6.7% | 3.3 | -4.5% | 1.1%[15.4 µM] | 0.1
O=C(Nc1cccc(C(F)(F)F)c1)c1cc2nc(-c3ccc4c(c3)OCO4)cc(C(F)(F)F)n2n1 | -29.5 | nt | nt | -23.0% | nt | -0.7
Cc1csc(NC(=O)c2ccc[nH]c2=O)n1 | nt | 6.0% | 1.9 | -1.6% | -33.5%[inhibitor] | nt
O=C(NCCc1cccs1)c1cccs1 | 13.2 | 13.9% | -6.0 | nt | -7.2%[15.4 µM] | 1.4

Compounds above with a Cl atom (6):
mol | TRPML1 blocker | gsp antag | Menin MLL FP FL | ClpP mod | gsp agonist | TRPML1 agonist
CN(C)CC/C=C1/c2ccc(F)cc2Sc2ccc(Cl)cc21 | 0.9 | 22.7% | nt | nt | 6.9%[15.4 µM] | 0.7
Cc1ccc(S(=O)(=O)c2nnn3c2nc(NC(C)C)c2cc(Cl)ccc23)cc1C | 18.1 | nt | nt | -4.5% | nt | -1.1
CN(C)/C=C(/C(=O)c1ccc(Cl)cc1)S(C)(=O)=O | 7.0 | 0.4% | -1.2 | nt | 6.0%[15.4 µM] | -0.8
CN(CC(=O)Nc1ccccc1Cl)CC(=O)Nc1c(F)cccc1F | 4.3 | -5.3% | 0.4 | 1.0% | -26.3%[15.4 µM] | -1.4
O=C(NC(=S)Nc1ccc(N2CCCCC2)c(Cl)c1)c1cccs1 | 1.4 | 5.1% | nt | 0.7% | 24.1% | -0.5
O=C(Nc1cc(S(=O)(=O)Nc2ccccc2F)ccc1Cl)c1ccc(F)cc1F | -6.5 | -6.8% | nt | nt | -27.5% | 2.4

Random draw from the library; about 2.1% have a hit in one of these screens.
